Screening data deposited in PubChem by several laboratories.
CSC inhib = cancer stem cell inhibition | cancer stem cell-like cells viability, luminescence | 300,000 tested, 1.1% active | AID 2717 | inhibition, % at 7.5 µM;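 active = mean at 75% or more and at least half the replicates too; inconclusive = mean and replicates disagree; tested in HMLE shEcad cells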;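 also: 0% = median of negative and 100% = median of positive control wells; the first replicate is given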
Env fusion inh = inhibitors of HIV Env-mediated cell fusion | HeLa-JRFL Env/CEM21 cell fusion, luciferase | inhibition, % at 12.3 µM | 360,000 tested, 1.1% active | AID 651610;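 active = mean replicate inhibition score of at least 50 and every replicate individually at or above 50; inconclusive = only one of the two criteria met; inactive = mean below 50 and not all replicates reaching 50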;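 also: 0% = plate neutral controls and 100% = maraviroc near 300 nM; one replicate is shown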
UUG fidelity = alters start codon recognition fidelity in yeast; S. cerevisiae UUG-firefly luciferase reporter, luminescence/redox ratio; activity score, % at 18.7 µM; 350,000 tested, 0.13% active;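 active = replicate mean at a twofold rise or more, about +100% in these data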;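 also: firefly luciferase made from a UUG start codon reports start codon fidelity; reporter light over untreated wells divided by growth signal over untreated wells; some hits fall short of that in this replicate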
PABP polyA inh = blocks human PABP binding to poly(A) RNA. P11940. fluorescence polarization. inhibition, % at 35 µM. 290,000 tested, 1% active;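 active = 50% or more with normal probe brightness, or confirmed in later tests; inconclusive = above 50% with abnormal brightness, or retests that disagree; inactive = below 50% or failed in later tests; about a fifth of its hits are not listed in these tables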;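 also: calls also rest on retests at 20 µM and on dose response follow-up; controls were probe without protein and protein plus probe with vehicle; some compounds called inactive have numbers as strong as hits; many hits fall short of the cut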
Target sequence (P11940 whole entry, looked up): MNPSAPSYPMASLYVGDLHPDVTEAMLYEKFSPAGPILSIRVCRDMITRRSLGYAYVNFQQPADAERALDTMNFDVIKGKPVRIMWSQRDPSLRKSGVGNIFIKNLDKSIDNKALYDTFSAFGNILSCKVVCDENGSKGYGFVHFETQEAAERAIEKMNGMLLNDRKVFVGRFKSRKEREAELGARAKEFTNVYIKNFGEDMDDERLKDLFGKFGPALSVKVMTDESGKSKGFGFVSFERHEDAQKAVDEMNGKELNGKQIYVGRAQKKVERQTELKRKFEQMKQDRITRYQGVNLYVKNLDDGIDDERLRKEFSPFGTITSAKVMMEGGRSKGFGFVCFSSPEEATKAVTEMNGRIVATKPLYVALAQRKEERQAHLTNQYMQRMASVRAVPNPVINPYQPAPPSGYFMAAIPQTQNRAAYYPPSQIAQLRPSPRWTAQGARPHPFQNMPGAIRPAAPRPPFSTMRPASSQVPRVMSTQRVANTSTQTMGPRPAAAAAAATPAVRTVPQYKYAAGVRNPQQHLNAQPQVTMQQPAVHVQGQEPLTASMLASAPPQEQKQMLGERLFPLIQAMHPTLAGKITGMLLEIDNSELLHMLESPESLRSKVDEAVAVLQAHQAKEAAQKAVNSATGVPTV
Rce1 inh = inhibitors of yeast Ras-converting enzyme. yeast membranes, quenched prenylated peptide cleavage fluorescence. calls only. 290,000 tested, 0.27% active;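 active = fall in fluorescence gain of 50% or more versus controls, with final raw signal at or below 3038400; inconclusive = same 50% fall but final raw signal above 3038400; inactive = fall in fluorescence gain under 50%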;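 also: plate controls were neutral control wells for no effect and wells lacking membranes for full effect; tested at 10 µM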
eIF4H inh = inhibitors of RNA binding by human eIF4H; eIF4H fluorescence polarization binding assay; inhibition, % at 35 µM; 290,000 tested, 0.94% active; AID 2012;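 active = 50% or more with normal probe brightness, or confirmed in later tests; inconclusive = above 50% with abnormal brightness, or retests that disagree; inactive = below 50% or failed in later tests; about a fifth of its hits are not listed in these tables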;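 also: calls also rest on retests at 20 µM and on dose response follow-up; 0% = protein and probe with vehicle and 100% = probe without protein; strong numbers were not always called active; many hits fall short of the cut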
MT1-MMP act inh = blocks activation of human MT1-MMP; P50281; HT1080 RFP-PRO-GFP cells, GFP/RFP ratio fluorescence, overnight; percent of plate control window, DMSO zero; GFP/RFP ratio change, % at 20 µM; 360,000 tested, 0.061% active;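 active = GFP/RFP ratio change of at least 30% with cell ATP level not reduced by more than half and red fluorescence within 50% of control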; also: strong numbers were not always called active
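Test system: HT1080 RFP-PRO-GFP cells; Benchmarks: DMSO and RFP-L50D-GFP cell wells; Timing: cells overnight before dosing, compound overnight, 37 °C, 5% CO2; Compound: one 20 µM compound dose with 1% DMSO; Read-out: GFP/RFP fluorescence ratio.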
eIF4H inh retest = second read-out of eIF4H inh, no call of its own (marks repeat the call); inhibition, %; compound at 20 µM; confirmation average;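 mean of two retest wells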
PABP polyA inh retest = further read-out of PABP polyA inh, marked with its call; inhibition, %; compound at 20 µM; confirmation repeats;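 mean of two retest wells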
MT1-MMP act inh RFP = second read-out of MT1-MMP act inh, no call of its own (marks repeat the call); RFP signal change, %; measured here: RFP expression control read;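 0 = vehicle wells; hits needed this value within 50% of zero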
Starred values were filed as active, the others as inactive; i = inactive; u = inconclusive; x = not tested or not shown; & = joins results of further samples. The list is partial; count on the stated rates, not on these rows.

SMILES	CSC inhib	Env fusion inh	UUG fidelity	PABP polyA inh	Rce1 inh	eIF4H inh	MT1-MMP act inh	MT1-MMP act inh RFP	others
Cc1[nH]c2ccccc2c1/C=N/NC(=O)c1cc(-c2ccccc2)n[nH]1	32	35	169*	1	i	-15	0	-6
COc1ccc(NC(=O)CCOc2ccccc2)cc1	8	x	-18	-2	i	7	2	4
O=C(COc1ccccc1Cl)NCCNC(=O)c1cccnc1	x	10	-9	9	i	-1	1	1
O=C(OC1CSc2nc3ccccc3n2C1)c1ccco1 (centres undefined)	-9	0	-23	-1	i	0	4	-3
CC(O)(c1ccccc1)c1nc(-c2csc3ccccc23)cs1 (centres undefined)	x	1	-12	x	x	x	1	-2
CCOC(=O)C1CCN(CC(O)COC(CC)c2ccccc2)CC1 (centres undefined)	-28	-8	-18	-3	i	-12	4	0
CCN(Cc1ccccc1)S(=O)(=O)c1ccc(S(=O)(=O)N2CCN(CCC#N)CC2)cc1	6	9	-18	-6	i	6	-13	-21
Cc1ccc(Nc2cc(C)nc(-c3ccccc3)n2)cc1	23	-57	20	-2	i	1	-5	-2
COc1ccc(NC(=O)NC2CCCc3ccccc32)cc1OC (centres undefined)	1	-1	-8	-2	i	7	2	2
COc1ccccc1NC(=O)Nc1ccc2c(c1)OCCO2	x	-119	-9	15	i	0	4	2
COCCNC(=O)C1(C)CCCN(C(=O)c2cnc3ccccc3n2)C1 (centres undefined)	x	-31	-15	x	x	x	0	7
COc1ccc(CNC(=O)COC(=O)CCc2c[nH]c3ccccc23)cc1	2	-11	x	-28	i	-4	1	1
Cc1ccc(-c2n[nH]c(=O)c3ccccc23)cc1S(=O)(=O)NCCN1CCOCC1	x	x	-4	4	i	-1	0	1
COc1ccc(S(=O)(=O)c2c(O)c3ccc(C(=O)Nc4ccccc4F)cc3[nH]c2=O)cc1	0	3	-12	22	i	5	1	2
C[C@@H]1CN([C@@H](C)CO)C(=O)c2cc(NC(=O)Nc3ccc4c(c3)OCO4)ccc2O[C@H]1CN(C)S(=O)(=O)c1ccc(F)cc1	9	38	-13&-8	x	x	x	-7	-8
O=C(NC(=S)Nc1ccccc1N1CCCCC1)c1ccc(F)cc1Cl	u	8	-14	10	i	0	-4	-4
CC(=O)c1cccc(-n2c(CCC(=O)O)ccc2-c2ccccc2)c1	-13	-14	-9	6	i	10	-2	4
COc1cc(OC)c(N(C)S(=O)(=O)c2cccc(C(=O)NC3=NCCS3)c2)cc1Cl	31	10	10	-7	i	3	2	-3
O=C1Nc2cc(C(=O)N3CCOCC3)ccc2S/C1=C\c1ccccc1	7	-2	-7	10	i	2	-7	-5
CCc1cccc(OCC(=O)Nc2ccc(C)c(S(=O)(=O)N3CCCCCC3)c2)c1	1	15	-13	x	i	x	3	-30
Cc1cc(Cl)ccc1OCCCC(=O)N/N=C/c1cccc([N+](=O)[O-])c1	19	x	-17	-10	i	-5	3	0
C=CC[C@@H](CC(=O)N[C@@H](CO)Cc1ccccc1)C(=O)NCCOC(=O)[C@@H](CC=C)CC(=O)OC(C)(C)C	-6	-168	7	x	x	x	3	-3
O=C1C=C(c2cccc(OCc3ccccc3)c2)C[C@@H](c2ccc3c(c2)OCO3)C1	43	-7	-19	x	x	x	1	0
COc1cnc(SCCC(F)=C(F)F)[nH]c1=O	-4	11	x	-3	x	-8	1	4
Cc1cccc2c(N=O)c(O)n(CCc3ccccc3)c12	-9	2	-14	17	i	8	-1	-4

Filtered by structure: the compounds so far containing two or more sulfur atoms
SMILES	CSC inhib	Env fusion inh	UUG fidelity	PABP polyA inh	Rce1 inh	eIF4H inh	MT1-MMP act inh	MT1-MMP act inh RFP	others
CC(O)(c1ccccc1)c1nc(-c2csc3ccccc23)cs1 (centres undefined)	x	1	-12	x	x	x	1	-2
CCN(Cc1ccccc1)S(=O)(=O)c1ccc(S(=O)(=O)N2CCN(CCC#N)CC2)cc1	6	9	-18	-6	i	6	-13	-21
COc1cc(OC)c(N(C)S(=O)(=O)c2cccc(C(=O)NC3=NCCS3)c2)cc1Cl	31	10	10	-7	i	3	2	-3

Next results follow:
SMILES	CSC inhib	Env fusion inh	UUG fidelity	PABP polyA inh	Rce1 inh	eIF4H inh	MT1-MMP act inh	MT1-MMP act inh RFP	others
CC(C)c1ccc(NC2CCCN(C(=O)c3cnn(C(C)C)c3)C2)cc1 (centres undefined)	-1	-16	1	5	i	7	-2	-4
Cc1cccc(N2CCN(C(=O)c3ccccc3NC(=O)C3=CSCCO3)CC2C)c1 (centres undefined)	-3	5	2	2	i	-14	-1	-3
COCCN(CC(=O)Nc1cccc(C)c1C)C(=O)c1cc(-c2cccs2)nn1-c1ccccc1	34	x	-44	x	x	x	1	-4
Cc1ccccc1OCC(=O)NN1CCN(C)CC1	-3	-7	-12	-8	i	-7	-3	-3
COc1ccc(Cn2c(C)c(C)c(C#N)c2NC(=O)Nc2cccc(C)c2)cc1	-6	x	-17	-2	i	-5	-2	-5
COc1cc(C)nc(Oc2ccc(OCCOc3ccccc3)nn2)n1	-11	-14	x	-9	i	-8	3	4
CCCOC(=O)c1ccc(O)c(OC)c1	x	-9	-21	-12	i	-2	2	1
COC(=O)c1ccc(/C=N\NC(=O)CC(=O)NCCc2ccccc2)cc1	9	20	0	-6	x	4	-1	5
COc1cc(/C=C/c2nc3ccccc3c(=O)[nH]2)cc(Cl)c1O	-9	-7	-18	1	x	10	-72	2
CC(=O)Oc1ccc(/C=C2/C(=O)N(c3ccccc3)N=C2C)cc1	-6	27	-9	-5	i	-13	2	0
C#CCN1C=CC(=O)[C@@H](O)[C@H]1c1ccccc1Br	x	16	-16	x	x	x	1	4
N#CCCN(Cc1ccccc1)C(=O)CCC(=O)c1ccc(F)cc1	x	-18	-11	x	x	x	0	5
Cc1ccccc1-n1c(-c2csc(C)c2C)n[nH]c1=S	-8	-13	x	116	i	-4	4	-6	eIF4H inh retest=-2;PABP polyA inh retest=0
O=C(NC(=S)N1CCCc2ccccc21)c1ccc(Cl)cc1	14	-80	-10	0	x	5	3	1
O=C(N/N=C/c1cc(Br)c(O)c(Br)c1)C1CC1	-2	3	-17	6	i	-10	-2	-4
COC(=O)C1=C(C)NC(=S)NC1c1ccc(-c2ccccc2C(=O)OC)o1 (centres undefined)	2	-11	x	3	i	-6	1	-5
CCOCCCn1c(-c2ccc(Cl)cc2)n[nH]c1=S	-4	-212	-14	1	i	1	4	6
COc1cc(N=Nc2ccc(C(=O)N(C)C)cc2)c(C)cc1N	x	-21	-3	x	x	x	17	4
ClCC1=Nc2cccc3cccc(c23)N1	-17	x	x	27	i	17	x	x
COc1ccc(-n2nnnc2C(c2cc3ccccc3o2)N2CCN(C/C=C/c3ccccc3)CC2)cc1 (centres undefined)	x	-2	12	x	x	x	-2	-7
CCN1CCN(C(=O)c2ccc(CS(=O)(=O)Cc3ccccc3C)o2)CC1	-15	-9	-16	x	i	x	-3	0
CC(C)c1ccc2nc(SCC(=O)NCC3CCCO3)c(C#N)cc2c1 (centres undefined)	4	-6	-10	4	i	5	-2	-4
CCCCOc1ccc(NC(=O)[C@@H]2CCCN2C(=O)C2CCN(S(=O)(=O)c3ccc(C)cc3)CC2)cc1	19	1	x	49	i	3	-1	8
COc1ccc(S(=O)(=O)N2CCCCC2)cc1NC(=O)C1CC1	x	8	-12	x	x	x	-1	1
O=C(NCc1ccncc1)C(=O)Nc1ccc2c(c1)OCO2	-19	3	x	-5	i	-3	2	1

(next part)
SMILES	CSC inhib	Env fusion inh	UUG fidelity	PABP polyA inh	Rce1 inh	eIF4H inh	MT1-MMP act inh	MT1-MMP act inh RFP	others
Cc1c(Cl)cccc1NC(=O)NCc1ccccn1	6	-7	-15	-13	i	-12	0	0
CN1C(=O)[C@H]2[C@@H](c3ccc(C(F)(F)F)cc3)N[C@]3(CCCN(CC4CCCCC4)C3=O)[C@H]2C1=O	x	-1	-8	x	x	x	2	0
O=C(NC1CCCCC1)C(CCc1ccccc1)N1CCc2ccccc2C1 (centres undefined)	x	-18	4	x	x	x	-2	-11
CCCCn1c(-c2nonc2NC(=O)c2ccccc2Cl)nc2ccccc21	x	8	0	x	x	x	3	1
COC(=O)N[C@H](c1ccccc1)[C@@]1(C)C[C@@H]1[C@@H](C)C(=O)Nc1ccc2ccccc2c1	-13	7	-6	x	i	x	3	0
CCCOc1ccccc1C1NC(=O)NC(C)=C1C(=O)OCCOC (centres undefined)	-4	x	-1	-1	i	-2	1	3
Cc1ccc(Cl)c2c1NC(=O)C2(O)CC(=O)c1ccc(F)cc1 (centres undefined)	9	x	-3	3	i	4	0	4
O=[N+]([O-])c1ccccc1S(=O)(=O)Oc1ccccc1/C=N/n1cnnc1	x	x	x	1	i	2	6	5
Cc1ccc(CN2CCN(Cc3cnc(N(C)C)s3)CC2CCO)o1 (centres undefined)	-33	-7	x	6	i	-7	0	1
O=C(O)C1CC=CCC1C(=O)N1CCc2ccccc21 (centres undefined)	2	x	-14	6	i	27	3	-3
Cc1cccc(-c2noc(CN(C)C(=O)c3ccc4c(c3)OCO4)n2)c1	-14	15	9	-1	i	-14	0	2
CCOC(=O)N1CCC(NC(=O)c2ccc3snnc3c2)CC1	-7	9	-6	-2	i	-5	-3	0
COc1ccc(CNC(=O)CS(=O)CC(=O)O)cc1OC (centres undefined)	1	10	-15	6	i	29	-1	2
O=C(CN1C(=O)C(=O)N(C2CCCC2)C1=O)Nc1ccc(F)cc1F	x	5	-16	x	x	x	3	5
COc1ccc(C(=O)NC2CCC(O)CC2)cc1S(=O)(=O)NCc1ccc(Cl)cc1 (centres undefined)	-11	x	27	x	x	x	16	-2
CSc1ccc(CN(C)CC(=O)Nc2ccc(C)cc2Br)cc1	14	-22	x	0	i	18	-1	0
O=C(O)c1cccc(N2C(=O)c3cccc4cccc(c34)C2=O)c1	1	12	-16	-4	i	-5	4	4
CC(/C=N/NC(=O)c1ccccc1F)=C\c1ccccc1	12	-120	2	-4	i	-5	2	5
Cc1nnc(NC(=O)CC(NC(=O)C(F)(F)F)c2ccccc2)s1 (centres undefined)	-1	-2	x	-4	i	-9	3	-1
CC(C)C[C@H](NC(=O)[C@@H]1Cc2c([nH]c3ccccc23)C2c3ccccc3C(=O)N21)C(=O)N1CCC[C@@H]1C(=O)O (some centres undefined)	0	x	8	2	i	6	-6	3
O=c1nc(SCc2ccc(Cl)cc2)nc(-c2ccccc2)[nH]1	30	8	-13	3	i	1	8	4
CCCCOC(=O)Nc1sc2c(c1C(=O)OC)CCC2	8	-19	-13	-6	i	-7	-5	0
COCCN(C(=O)CCC(=O)Nc1ccccn1)C(C(=O)NCCC(C)C)c1ccc(F)cc1 (centres undefined)	-11	7	-8	12	i	8	1	1
CCCCS(=O)(=O)N1CCCC(C(=O)Nc2ccc3c(c2)CCC3)C1 (centres undefined)	13	-22	-4	-1	i	4	-1	6
CCNC(=S)N(CCc1c(C)[nH]c2ccc(C)cc12)Cc1cc(OC)c(OC)c(OC)c1	-4	-44	-9	-4	i	-6	-1	-6
Cc1ccc(C(=O)CSc2nnc(C3CC3)n2C2CC2)s1	6	-18	-17	x	x	x	-2	6
CC(=O)Nc1ccccc1-c1nc2cc(C#N)c(C#N)cc2[nH]c1=O	-5	1	-8	0	i	-6	-1	-2
Cc1nn(C)c(N)c1-c1ccccc1	0	1	-6	u	i	6	-4	0
CCCNC(=O)C1(C)CCN(C(=O)c2cccnc2Oc2ccccc2)C1 (centres undefined)	x	-22	-1	x	x	x	1	4
